# Screens: PubChem BioAssay, several laboratories
# RN4220 kill: S. aureus RN4220 growth inhibition; inhibition, % (no concentration beside the values); AID 1259311; OD600, 16 h; actives 0.33% (n = 330,000);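 active = z-score of -3 or lower and OD600 up to 0.18 on both plates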;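 also: plate controls were untreated cells for no effect and reference antibiotic for full effect; stock transfer was 100 nL into about 80 µL; one replicate is shown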
# PrP UTR inh: suppresses PrP 5' UTR mRNA reporter expression. cell-based PrP 5' UTR mRNA reporter, plate reader. inhibition, % (no concentration beside the values). actives 0.35% (n = 340,000). AID 488862;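 active = every replicate at 50% or more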;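 also: 0 = median of the neutral control wells; tested in H4 reporter cells; numbers are from one replicate; inactives centre near -14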
# Autofluor counter: compound fluorescence in toxin protease inhibitor counterscreen. actives 3.1% (n = 360,000). fluorescence intensity (concentration not given with the values). compound autofluorescence counterscreen, microsphere flow cytometry; stronger effect = higher value;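 active = at least 3 SD above the mean of all compounds, about 16000 in these data; inconclusive = too few beads counted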;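 also: 100 nL of 1 mM stock went into each well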
# Mtb hypoxia inh: inhibitors of hypoxia-regulated fluorescent reporter in Mycobacterium tuberculosis; M. tuberculosis hypoxia-regulated fluorescent reporter, fluorescence; fluorescence inhibition, % (test concentration not listed); actives 0.1% (n = 300,000); AID 1159583;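 active = 35 to 45% if threefold the growth effect, above 45% if 1.5-fold the growth effect; inactive = the rest, general growth blockers included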;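 also: wells of about 50 µL received 100 nL stock; 0% = vehicle wells and 100% = reference inhibitor wells; whole bacteria with a GFP reporter of the hypoxia response; strong numbers were not always called active; many hits fall short of the cut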
# BJeLR viability: kills HRASV12-expressing BJeLR cells; BJeLR (HRASV12) viability, CellTiter-Glo ATP luminescence, 48 h; reference of the scale not given here; inhibition, % (concentration not given with the values); actives 0.17% (n = 300,000);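 active = replicate mean above 50%; inconclusive = above 50% but judged a plate artefact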;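 also: 50 nL library stock added to about 25 µL; numbers are from one replicate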
# ugtP null kill: kills S. aureus RN4220 lacking UgtP | actives 0.54% (n = 330,000) | S. aureus RN4220 ugtP deletion, OD600 growth, 16 h; some inactives read as strong as hits | AID 1259309 | growth inhibition, % (test concentration not listed);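 active = z-score under -3 and OD600 up to 0.15 on both plates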;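 also: plate controls were untreated wells for no effect and antibiotic for full effect; wells of about 80 µL received 100 nL stock; the first replicate is given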
# Mtb hypoxia inh growth: also measured in Mtb hypoxia inh; calls as there; growth inhibition, %; measured here: M. tuberculosis growth (absorbance);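 0% = vehicle and 100% = reference antibiotic; read after six days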
# * marks the source's active call; other numbers are inactive results; ? = inconclusive; nt = no result given.
SMILES,RN4220 kill,PrP UTR inh,Autofluor counter,Mtb hypoxia inh,Mtb hypoxia inh growth,BJeLR viability,ugtP null kill
CC(C)(C)c1ccc(OCC(=O)NNC(=S)NC(=O)c2ccco2)c(Br)c1,99*,-46,?,-3,4,8,98*
Cc1ccc(-c2nnc(SCC(=O)CC(=O)Nc3ccccc3)n2-c2ccccc2)cc1,3.3,-5,21966*,3,11,2,-12
CCC(C)[C@H](NC(=O)NCc1cccc(OC)c1)C(=O)OC (stereo not given in full),nt,-4,3150,nt,nt,-8,nt
O=C(/C=C/c1ccccc1Cl)Nc1ccncc1,nt,-67,3328,nt,nt,6,nt
CCCCC1=CC2=C(c3ccco3)C(=O)C(C)(OC(=O)c3ccc(OC)cc3)C(=O)C2=CN1CCCCO (stereo not given),3.5,-10,3314,6,-2,-17,1
Cc1ccc(C(=O)CSC2=C(C#N)C(c3ccco3)CC(=O)N2)c(C)c1 (stereo not given),-0.1,-17,5639,-2,10,-8,4
CCS(=O)(=O)N1Cc2ccccc2CC1C(=O)NC(C)C12CC3CC(CC(C3)C1)C2 (stereo not given),12,-27,4781,nt,nt,-2,-6
CCCn1c(=O)c(C(=O)NCc2ccccc2OC)c(O)c2ccccc21,3.0,-44,4190,-1,9,-7,7
NN=C(c1ccccc1)c1cc(Br)ccc1N,8.1,nt,nt,14,5,nt,-6
COc1cc(C(=S)N2CCOCC2)ccc1OC(=O)c1cc([N+](=O)[O-])c(C)c([N+](=O)[O-])c1,1.5,-21,2123,13,8,8,1
COC(=O)[C@@H](NC(=O)Nc1cc(Cl)ccc1C)C(C)C,4.6,-19,7849,1,-3,4,9
COc1cc2c(cc1OC)C(C)N(C(=O)C1COc3ccccc3O1)CC2 (stereo not given),-0.2,-1,4429,nt,nt,11,0
CC(C)(C)n1nc2c(c1NC(=O)c1cccc(C(F)(F)F)c1)CS(=O)C2 (stereo not given),3.2,-3,3002,10,1,7,9
CC(=O)n1cc(C=NNC(=O)c2cccc(O)c2)c2ccccc21,-2.7,nt,nt,11,3,nt,-12
O=S(=O)(NCC1CCCO1)c1ccc(-c2ccc(S(=O)(=O)NCC3CCCO3)cc2)cc1 (stereo not given),-0.2,2,3974,-6,4,13,-1
O=C(NCCCN1CCCC1=O)c1cc2nc(-c3ccco3)cc(C(F)(F)F)n2n1,7.2,-14,4965,-11,-12,-7,9
CCOc1ccc(OCCC(=O)OCC(=O)NCCc2ccc(S(N)(=O)=O)cc2)cc1,-0.5,-3,3923,-5,6,nt,0
COc1cc(OC)c(C(=O)NCc2ccco2)cc1OC,2.5,-5,3544,10,21,-2,6
Cc1ccc(S(=O)(=O)N(CC(=O)N2CCN(c3ccccc3F)CC2)C2CCCCC2)cc1,0.1,-56,20732*,11,6,0,5
CCC(=Cc1ccccc1OC)c1ccncc1,9.9,-28,4551,10,5,nt,5
CCOC(=O)C1=CNS(=O)(=O)NC1c1ccc(C(F)(F)F)cc1 (stereo not given),3.0,-16,3351,-1,2,nt,0
Cc1cc(C)cc(OCC(=O)Nc2nc3ccc([N+](=O)[O-])cc3s2)c1,2.0,-16,7218,-4,-12,-8,-17
CN1CCCC(OC(=O)/C(C#N)=C/c2ccccc2)C1 (stereo not given),3.5,-14,3375,1,-1,0,8
CSc1nc(C)cc(Oc2ccc(OCCOc3ccccc3)nn2)n1,2.7,-128,4238,-3,6,-8,-7
Cc1cc(-c2ccc(Cl)cc2)oc(=O)c1NC(=O)c1ccccc1,-1.5,-2,2804,nt,nt,-8,4
SMILES,RN4220 kill,PrP UTR inh,Autofluor counter,Mtb hypoxia inh,Mtb hypoxia inh growth,BJeLR viability,ugtP null kill
CCOc1ccc(OCCC(=O)OCC(=O)N2CCN(S(=O)(=O)c3ccc(C)cc3C)CC2)cc1,1.9,-15,6150,2,-6,nt,8
Cc1ccc(CSc2ccc(-c3cccs3)nn2)cc1,nt,-98,2497,nt,nt,3,nt
COc1cc(C(=O)NCC(c2ccco2)N2CCc3ccccc3C2)cc(OC)c1OC (stereo not given),-0.2,-16,?,4,2,0,6
COC(=O)C1=C(C)N=C2SC(C)C(=O)N2C1c1ccc(C(=O)OC)cc1 (stereo not given),-1.2,0,3314,nt,nt,0,1
Cc1cc(C(=O)NN=Cc2ccc(O)c([N+](=O)[O-])c2)c(C)n1-c1ccc(F)cc1,15,nt,nt,13,20,nt,1
CCCc1c(O)nc(SCCN(CC)CC)n(C(=O)c2ccccc2)c1=O,6.1,-16,23987*,9,10,-29,5
CCOc1ccc(C2Nc3ccccc3C(CC)(CC)O2)cc1 (stereo not given),9.3,0,4023,14,7,-3,6
CN(CC(=O)Nc1ccccc1Br)C(=O)c1cccc([N+](=O)[O-])c1,2.2,-21,3195,2,-3,6,7
Cc1cccc(-n2c(N)c(-c3nc4ccccc4n3C)c3nc4ccccc4nc32)c1,-0.4,-23,2571,-2,1,6,-13
O=C1CCN(S(=O)(=O)c2cccs2)c2ccc(C(F)(F)F)cc2N1,1.1,-27,4456,2,4,-8,6
CCOc1ccc(N=Nc2ccc(O)c3ncccc23)cc1,11,20,2421,2,-10,26,-10
NC(Cc1ccccc1)C(O)(c1ccccc1)c1ccccc1 (stereo not given),-3.0,-58,4183,-4,-1,0,-6
CC1Cc2ccccc2N1S(=O)(=O)c1ccc2c(c1)n(C)c(=O)c(=O)n2C (stereo not given),0.1,2,12095,-8,-4,7,-10
CN(C)S(=O)(=O)Nc1ccc(Oc2ccccc2)cc1,2.1,-49,5920,9,5,-11,4
C(=NNc1nc(-c2ccccc2)cs1)c1ccncc1,4.7,nt,nt,1,2,nt,1
O=[N+]([O-])c1cc2c(cc1C=NNc1nc(Nc3ccccc3)nc(N3CCCCC3)n1)OCO2,-0.7,nt,nt,-2,10,nt,-14
Cc1cc(C)n(/N=C/c2ccc(C(C)C)cc2)c(=O)c1C#N,nt,-23,2017,nt,nt,6,nt
Cc1ccc(NC(=O)CNCC2CCCCC2)cc1S(=O)(=O)N(C)C,3.9,-11,nt,7,5,-2,-2
O=C(Cc1ccc(Cl)cc1)N1CCOCC1,0.2,-14,3678,-5,4,-9,3
COc1ccc(Cl)cc1NC(=O)CN(C)CC(=O)NC(C)c1ccccc1 (stereo not given),-1.5,-21,4515,13,5,-1,10
CCOc1ccc(N2CC(C(=O)Nc3c(C)n(C)n(-c4ccccc4)c3=O)CC2=O)cc1 (stereo not given),2.7,-59,3955,15,7,2,6
CC(CC(=O)Nc1ccccn1)=NNC(=O)C(=O)Nc1cccc(C)c1,7.1,nt,nt,7,5,nt,4
COCCCn1c(=O)cc(C)[nH]c1=S,1.7,11,4227,-2,-8,-4,5
CSc1nsc(SCC(=O)Nc2cc(C(=O)O)ccc2C)n1,nt,-20,4167,nt,nt,4,nt
N#CCc1c(C#N)c(N)nc(N2CCCC(O)C2)c1C#N (stereo not given),12,3,4912,-2,5,1,-5

# Four entries from above, bar-delimited.
Compound | RN4220 kill | PrP UTR inh | Autofluor counter | Mtb hypoxia inh | Mtb hypoxia inh growth | BJeLR viability | ugtP null kill
Cc1cc(-c2ccc(Cl)cc2)oc(=O)c1NC(=O)c1ccccc1 | -1.5 | -2 | 2804 | nt | nt | -8 | 4
CCOc1ccc(OCCC(=O)OCC(=O)N2CCN(S(=O)(=O)c3ccc(C)cc3C)CC2)cc1 | 1.9 | -15 | 6150 | 2 | -6 | nt | 8
Cc1ccc(CSc2ccc(-c3cccs3)nn2)cc1 | nt | -98 | 2497 | nt | nt | 3 | nt
COc1cc(C(=O)NCC(c2ccco2)N2CCc3ccccc3C2)cc(OC)c1OC (stereo not given) | -0.2 | -16 | ? | 4 | 2 | 0 | 6

# The results go on:
SMILES,RN4220 kill,PrP UTR inh,Autofluor counter,Mtb hypoxia inh,Mtb hypoxia inh growth,BJeLR viability,ugtP null kill
O=C(NCc1ccncc1)c1ccc(Br)o1,1.0,6,8850,4,-5,5,6
CCOC(=O)C1CC(=O)c2cc(OC)c(OC)cc2C1 (stereo not given),0.6,-17,3862,16,1,6,5
COc1cccc(C(=O)N2CCC(CCC(=O)Nc3cccc(C)c3)CC2)c1,-2.1,-4,5728,4,7,2,7
COc1cc2c(cc1NC(=O)c1ccc(C)c([N+](=O)[O-])c1)oc1ccccc12,14,-25,1956,nt,nt,5,-4
COC(=O)CSc1cc(SCC(=O)OC)c(C#N)c(SCC(=O)OC)c1,-0.4,-21,2862,-4,6,-5,-8
NC(=O)c1cc2ccccc2o/c1=N\NC(=O)c1ccncc1,nt,-32,3950,nt,nt,-20,nt
Cc1occc1-c1nnc(SCC(=O)Nc2nccs2)n1Cc1ccco1,0.6,-10,4807,nt,nt,-4,-4
COc1ccc(CCNC(=O)Cn2nnc(-c3ccc(OC)c(OC)c3)n2)cc1OC,9.6,-4,4578,1,0,-3,5
CC(C)[C@H](NC(=O)c1ccc(Cl)cc1Cl)C(=O)OCc1nc2ccsc2c(=O)[nH]1,3.0,-11,3835,10,1,nt,5
CC1=C(/C=N/Nc2ccc([N+](=O)[O-])cc2[N+](=O)[O-])C(C)(C)CCC1,nt,8,7721,nt,nt,-5,nt
COc1cc(C=C2N=C(c3ccccc3)OC2=O)c(F)cc1OCc1ccccc1,7.8,nt,nt,16,4,nt,-5
Oc1ccc(Nc2nc(-c3ccc(O)cc3)cs2)cc1,4.1,-73,11073,-1,3,-16,-9
COc1cc(C(=O)OCC(=O)NCc2ccco2)cc(OC)c1OC,0.0,-20,4720,nt,nt,-7,14
CCOc1ncccc1C(=O)OCC(=O)Nc1ccc(C(N)=O)cc1,5.1,-11,4855,9,3,5,10
O=c1[nH]c(C2CCCN(S(=O)(=O)c3cccc(Cl)c3)C2)nc2c1nnn2Cc1ccc2c(c1)OCCO2 (stereo not given),-0.4,-20,6455,-7,-3,3,-20
COc1ccccc1C(=O)Nc1ccc(S(=O)(=O)N2CCCC2)cc1,3.3,14,16385*,2,7,10,4
C=CCn1c(SC(C)C(=O)NCc2ccc3c(c2)OCO3)nc2scc(-c3ccccc3)c2c1=O (stereo not given),-2.2,-2,16316*,7,7,-4,3
CC(=O)c1cc(C#N)c(N2CCN(c3ccccc3)CC2)nc1C,-1.4,-24,4073,-3,-9,-4,-5
COc1ccc(C(=O)Nc2cc(Cl)cc(Cl)c2)c(OC)n1,-11,-36,3254,-2,2,6,-3
C=CCn1c(SCc2c(F)cccc2Cl)nnc1-c1ccco1,10.0,-23,16837*,7,-2,4,12
CC(C)=NN=C(c1ccc([N+](=O)[O-])cc1)C12CN3CN(CN(C3)C1)C2,2.5,nt,nt,-9,0,nt,6
CC1(C)CC(=O)C2=C(C1)N(c1ccc(Cl)cc1)C(=O)C2(O)C(F)(F)F (stereo not given),38,-15,9186,-1,-2,6,13
COc1cc(C(=O)NCCC(=O)N2CCCCC2)cc(OC)c1OC,3.6,-19,3910,0,0,5,7
COc1ccc(NC(=S)NC(=O)C2CCCCC2)cc1,0.8,-51,5950,nt,nt,-1,26
CCCCOC(=O)C1CN(c2ccccc2)N=C1C(C)=O (stereo not given),14,-5,4180,4,0,-21,11
SMILES,RN4220 kill,PrP UTR inh,Autofluor counter,Mtb hypoxia inh,Mtb hypoxia inh growth,BJeLR viability,ugtP null kill
CCOc1cc(/C=C2/C(=O)NC(=O)N(c3ccc(CC)cc3)C2=O)ccc1OC(=O)c1cccs1,nt,-19,7763,nt,nt,5,nt
Cc1noc(C)c1COc1ccc(C(=O)OCC(=O)NC2CCCCC2C)cc1 (stereo not given),-0.5,-6,3064,9,6,nt,-1
CCOC(=O)c1ccccc1NC(=O)COC(=O)CCCOc1ccccc1,2.7,-6,?,3,1,3,14
CC(C)N(C)CCOC(=O)/C=C/c1ccccc1,-0.1,-14,6969,-1,2,1,3
COc1ccc(/C=C(/NC(=O)c2ccc(OC)c(OC)c2)C(=O)NCCc2c[nH]c3ccccc23)cc1,2.3,-14,9769,-2,2,-1,2
Cc1nc(N)c2c(Cc3cccc4ccccc34)nn(C(C)(C)C)c2n1,-7.5,-6,3952,-4,-1,-2,2
CCOC(=O)CN(C(=O)COc1nc(C)cc(C)c1C#N)c1ccc(F)cc1,-3.2,-23,5661,-5,-7,-2,-9
Cc1ccc(S(=O)(=O)N2C(c3ccc(Cl)cc3)CC=C(C(=O)O)C2c2ccc(Cl)cc2)cc1 (stereo not given),40,nt,nt,14,6,nt,59
CCN1CCN(C(=O)CN(C)S(=O)(=O)c2ccc(OC)c(C)c2)CC1,2.1,13,10781,-6,2,-9,2
CN(CCC#N)C(=S)Nc1ccc(F)cc1,2.0,-27,6233,9,11,-14,3
O=C(Nc1ccccc1)ON=Cc1ccncc1,-2.5,nt,nt,5,-2,nt,3
